eIF4H FP inh: inhibitors of RNA binding by human eIF4H; Q15056; eIF4H fluorescence polarization binding assay; inhibition, % at 35 µM; hit rate 0.94% among 290,000; AID 2012;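 active = 50% or more with normal probe brightness, or confirmed in later tests; about a fifth of its hits are not listed in these tables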;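 also: calls also rest on retests at 20 µM and on dose response follow-up; 0% = protein and probe with vehicle and 100% = probe without protein; strong numbers were not always called active; many hits fall short of the cut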
PABP polyA inh: blocks human PABP binding to poly(A) RNA | inhibition, % at 35 µM | fluorescence polarization | P11940 | hit rate 1% among 290,000;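 active = 50% or more with normal probe brightness, or confirmed in later tests; about a fifth of its hits are not listed in these tables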;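 also: calls also rest on retests at 20 µM and on dose response follow-up; controls were probe without protein and protein plus probe with vehicle; some compounds called inactive have numbers as strong as hits; many hits fall short of the cut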
Target sequence (P11940 whole entry, looked up): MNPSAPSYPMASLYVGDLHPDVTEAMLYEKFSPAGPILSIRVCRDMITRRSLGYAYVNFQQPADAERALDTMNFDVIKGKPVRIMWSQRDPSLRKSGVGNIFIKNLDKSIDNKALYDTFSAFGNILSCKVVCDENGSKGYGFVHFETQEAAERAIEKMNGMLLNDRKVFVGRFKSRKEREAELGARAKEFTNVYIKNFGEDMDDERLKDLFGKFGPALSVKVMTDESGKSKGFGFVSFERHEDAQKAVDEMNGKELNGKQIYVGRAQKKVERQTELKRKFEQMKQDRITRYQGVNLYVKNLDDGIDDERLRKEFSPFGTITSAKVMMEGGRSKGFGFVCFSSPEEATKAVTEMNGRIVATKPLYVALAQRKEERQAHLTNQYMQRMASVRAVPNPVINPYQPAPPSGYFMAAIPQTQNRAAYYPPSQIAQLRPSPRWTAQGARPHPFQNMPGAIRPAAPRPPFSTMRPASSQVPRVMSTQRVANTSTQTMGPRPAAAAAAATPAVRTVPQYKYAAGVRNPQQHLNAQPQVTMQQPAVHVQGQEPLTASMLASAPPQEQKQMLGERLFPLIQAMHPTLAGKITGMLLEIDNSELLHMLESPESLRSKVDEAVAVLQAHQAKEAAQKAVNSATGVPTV
UUG fidelity: modulators of start codon recognition fidelity in yeast | AID 602363 | activity score, % at 18.7 µM | S. cerevisiae UUG-firefly luciferase reporter, luminescence/redox ratio | hit rate 0.13% among 350,000;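 active = replicate mean at a twofold rise or more, about +100% in these data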;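 also: firefly luciferase made from a UUG start codon reports start codon fidelity; reporter light over untreated wells divided by growth signal over untreated wells; some hits fall short of that in this replicate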
MT1-MMP act inh: MT1-MMP (human) activation inhibition; AID 651647; HT1080 RFP-PRO-GFP cells, GFP/RFP ratio fluorescence, overnight; percent of plate control window, DMSO zero; hit rate 0.061% among 360,000; GFP/RFP ratio change, % at 20 µM;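 active = GFP/RFP ratio change of at least 30% with cell ATP level not reduced by more than half and red fluorescence within 50% of control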; also: strong numbers were not always called active
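Test system: HT1080 cells expressing an RFP-PRO-GFP fluorescent reporter construct / Compound dosing: single-point 20 µM compound, 1% DMSO / Schedule: cells overnight before dosing, compound overnight, 37 °C, 5% CO2 / Evaluation: GFP/RFP fluorescence ratio / Control set: DMSO and RFP-L50D-GFP cell wells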
CSC inhib: cancer stem cell inhibition; AID 2717; cancer stem cell-like cells viability, luminescence; inhibition, % at 7.5 µM; hit rate 1.1% among 300,000;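 active = mean at 75% or more and at least half the replicates too; tested in HMLE shEcad cells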;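 also: 0% = median of negative and 100% = median of positive control wells; the first replicate is given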
HIV Env fusion: blocks HIV Env-driven cell-cell fusion; HeLa-JRFL Env/CEM21 cell fusion, luciferase; AID 651610; hit rate 1.1% among 360,000; inhibition, % at 12.3 µM;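 active = mean replicate inhibition score of at least 50 and every replicate individually at or above 50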;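 also: 0% = plate neutral controls and 100% = maraviroc near 300 nM; one replicate is shown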
Rce1 inhib: blocks yeast Ras-converting enzyme; Q03530; yeast membranes, quenched prenylated peptide cleavage fluorescence; calls only; hit rate 0.27% among 290,000; AID 2563;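 active = fall in fluorescence gain of 50% or more versus controls, with final raw signal at or below 3038400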;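 also: plate controls were neutral control wells for no effect and wells lacking membranes for full effect; tested at 10 µM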
MT1-MMP act inh RFP: second read-out of MT1-MMP act inh, no call of its own (marks repeat the call); RFP signal change, %; measured here: RFP expression control read;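 0 = vehicle wells; hits needed this value within 50% of zero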
Active calls of the source: *; i = inactive; . = no result given; + = active, no number. Some of the compounds tested. The share of hits here may be higher or lower than overall.

SMILES	eIF4H FP inh	PABP polyA inh	UUG fidelity	MT1-MMP act inh	MT1-MMP act inh RFP	CSC inhib	HIV Env fusion	Rce1 inhib
CC12CCC3C(CCC4CC(O)CCC43C)C1CC(O)C2 (stereo not given)	.	.	-13	3	-2	.	-14	.
CCN1C(=O)[C@@H]2[C@@H](c3ccc(-c4ccc(Cl)c(Cl)c4)cc3)N3CCCC[C@@]3(C(=O)OC)[C@@H]2C1=O	.	.	-8	0	-8	5	63*	i
COc1ccc(N(CC(=O)NCc2cccs2)S(=O)(=O)c2c(C)n[nH]c2C)cc1	-14	-3	-16	0	2	-18	-26	i
CC(=O)N1CCN=C1SCc1ccc(F)cc1	-7	-4	-14	-3	7	6	11	i
O=C(CSc1nc2ncccc2[nH]1)Nc1ccccc1-c1ccccc1	-2	-8	-21	-3	-8	-13	0	i
COc1ccc(NC(=O)Nc2cccc(F)c2)c(OC)c1	-13	-19	-28	8	7	6	3	i
COc1cccc(-n2cnnc2SCC(=O)NC2CC2)c1	.	.	-2	0	2	15	.	.
Cc1ccccc1CCN1CCCC(CN(C)C(=O)c2ccc3ncccc3c2)C1 (stereo not given)	-13	-1	-17	-1	0	2	-11	i
COc1ccccc1NC1SC(=O)N(c2ccccc2)C1=O (stereo not given)	-4	0	-7	-4	-1	7	-19	i
CCN1C(=O)c2ccccc2Sc2ccc(C(=O)NCCCN3CCOCC3)cc21	-4	1	.	3	1	3	-10	i
CCC1CCC2(CC1)NNC(=S)NN2	-20	13	.	5	0	-12	45	i
COc1ccc(-n2c(C)c(C)c3c(NCCN(C)C)ncnc32)cc1	0	-1	-9	.	.	6	-28	i
COc1ccc(NC(=O)c2cn(-c3ccccc3)nc2-c2cc3ccccc3o2)cc1	-9	-8	-15	-4	-8	.	.	i
C=C(C)CSc1nc2ccccc2[nH]1	9	7	.	2	-1	-1	11	i
COc1ccccc1OCCNC(=O)C1CC(=O)N(Cc2ccccc2)C1 (stereo not given)	.	.	9	1	3	-14	-3	.
CCCCNc1c(-c2ccc(OC)c(Sc3ccc(OC)cc3)c2)nc2ccccn12	.	.	-20	0	-17	101*	.	i
O=C(N/N=C/c1ccccc1)c1[nH]c2ccc(Br)cc2c1-c1ccccc1	-5	-15	.	5	-7	46	-157	i
O=C(O)c1cccc(CSc2nnc(Cc3ccccc3)o2)c1	-9	0	-8	1	3	10	-36	i
COc1ccc(CCNC(=O)CN(C)S(=O)(=O)c2ccc3nc(C)sc3c2)cc1OC	-3	7	-12	0	-5	1	0	i
COc1ccc(CCNC(=O)CCC(=O)N2CC(C)Oc3ccc(Cl)cc32)cc1OC (stereo not given)	-19	0	-5	2	3	-7	-1	i
COc1cc(S(=O)(=O)NCc2ccncc2)ccc1Br	12	-9	-23	5	-28	3	65*	i
c1ccc(/N=C2\N=C(Nc3ccccn3)c3ccccc32)nc1	.	.	-27	0	-6	52	12	i
CNC(=S)Nc1cc(S(=O)(=O)Nc2cc(Cl)ccc2Cl)ccc1N1CCCC1	-6	14	-10	5	0	29	26	i
CCOC(=O)COc1nc2ccc(Br)cc2c(-c2ccccc2)c1C(C)=O	-4	5	-10	-4	-6	2	12	i
O=C(CCN1C(=O)C2CC=CCC2C1=O)NC1CCCCC1 (stereo not given)	-7	8	-16	-3	-2	-4	1	i
COc1cc(NC(=O)CN2C(=O)NC(C)(c3ccccc3)C2=O)c(C)cc1[N+](=O)[O-] (stereo not given)	-3	-5	.	3	-1	.	.	i
COc1ccccc1NS(=O)(=O)c1cc(NC(=O)c2sccc2C)ccc1N1CCCC1	-1	8	.	-4	-5	6	-15	i
COc1ccc(CN2CCN(C(=O)c3cccs3)CC2)cc1Br	12	2	-14	-1	-5	-9	.	i
CCOc1ccc(CCNC(=O)C2(c3ccccc3)CC2)cc1OCC	9	12	23	-4	-3	6	-12	i
CC(CN1CCCC(C(N)=O)C1)c1ccccc1 (stereo not given)	3	-7	-11	2	6	.	-15	i
CSc1cccc(NC(=O)CN(C)S(=O)(=O)c2ccc(F)cc2)c1	-4	3	1	0	0	23	.	i
CCSc1nnc(NC(=O)NC(C)(C(F)(F)F)C(F)(F)F)s1	2	0	-15	-7	-9	-7	1	i
CC1C/C(=C/c2ccncc2)C(=O)/C(=C/c2ccncc2)C1 (stereo not given)	1	4	302*	-19	-35	77*	81*	i
Cc1ccccc1[C@@H](NC(=O)OC(C)(C)C)C(=O)OC(C)(C)C	.	.	-6	1	-2	-16	16	.
Cc1ccnc(SCCn2c(N3CCC(C)CC3)nc3c2c(=O)[nH]c(=O)n3C)n1	-11	3	-1	0	6	.	-35	.
Cc1cc(C)cc(-n2nc(C)cc2N)c1	-6	-6	-16	-12	-13	-9	.	i

Reformatted: 3 of the compounds above
Every second line gives: eIF4H FP inh	PABP polyA inh	UUG fidelity	MT1-MMP act inh	MT1-MMP act inh RFP	CSC inhib	HIV Env fusion	Rce1 inhib
Cc1ccnc(SCCn2c(N3CCC(C)CC3)nc3c2c(=O)[nH]c(=O)n3C)n1
    -11	3	-1	0	6	.	-35	.
Cc1ccccc1[C@@H](NC(=O)OC(C)(C)C)C(=O)OC(C)(C)C
    .	.	-6	1	-2	-16	16	.
CC(CN1CCCC(C(N)=O)C1)c1ccccc1 (stereo not given)
    3	-7	-11	2	6	.	-15	i

With a hit mark in UUG fidelity, among the entries above:
| Molecule | UUG fidelity | MT1-MMP act inh | MT1-MMP act inh RFP | HIV Env fusion | Rce1 inhib |
| --- | --- | --- | --- | --- | --- |
| CC1C/C(=C/c2ccncc2)C(=O)/C(=C/c2ccncc2)C1 (stereo not given) | 302* | -19 | -35 | 81* | i |

(more compounds)
SMILES	eIF4H FP inh	PABP polyA inh	UUG fidelity	MT1-MMP act inh	MT1-MMP act inh RFP	CSC inhib	HIV Env fusion	Rce1 inhib
CCn1c(C(=O)O)c(CC(=O)Nc2ccc(Br)cc2C)c2ccccc21	-4	1	-12	6	4	14	13	i
COC(=O)c1cc(-c2c(C)oc3cc(OC)ccc3c2=O)c(C)o1	4	2	-5	0	-5	-1	.	i
CC1=CC(C)(C)Nc2ccc(OC(=O)CCN3C(=O)c4ccccc4C3=O)cc21	-15	6	.	-57	23	8	28	i
O=C(O)C1C2C=CC(C2)C1C(=O)NC1CCN(Cc2ccccc2)CC1 (stereo not given)	11	11	-12	7	1	-2	10	i
Cc1c(Br)c(C(F)(F)F)nn1CC(=O)N1CCCC1	-1	-3	0	13	1	-9	.	i
O=C(Cn1cc2c(n1)CCCC2)NCCCN1CCCC1	17	26	-15	10	7	4	5	i
OC(COCC1COc2ccccc2O1)CN1CCN(c2ccc(F)cc2)CC1 (stereo not given)	-9	-6	.	0	0	8	23	i
CCSc1nc2c(cnn2-c2ccc(C)c(C)c2)c(=O)[nH]1	-9	0	-31	2	7	-3	6	i
CCOC(=O)c1cn(-c2ccccc2)nc1-c1cccnc1	4	-8	-8	-1	2	-3	-5	i
CCOc1ccccc1CN1CCNC(=O)C1CC(=O)NCc1nc(C)cs1 (stereo not given)	17	13	-2	-3	3	-9	-1	i
CCN(CC)c1nc(Oc2ccc(C(=O)NN)cc2)nc(Oc2ccc(C(=O)NN)cc2)n1	0	-22	.	0	6	1	-4	i
CCCc1cc(=O)[nH]c(SCC(=O)OCc2ccccc2)n1	-1	-10	.	0	1	4	.	i
CCN(CC)S(=O)(=O)c1cccc(C(=O)Nc2cc3oc4ccccc4c3cc2OC)c1	1	-5	-36	4	-4	.	1	i
COc1cccc(/C=N/NC(=O)c2ccc(=O)n(C)c2)c1O	-4	12	-6	3	-1	.	20	i
Cc1ccc(NS(=O)(=O)c2cc(C(=O)O)ccc2Cl)cc1	-6	12	-11	-2	4	-11	.	i
Cc1cccc(N2CCN(c3ccc(NC(=O)/C=C(/C(=O)O)c4ccccc4)cc3)CC2)c1	-15	7	-16	2	4	1	.	i
O=C(/C=C/c1ccccc1[N+](=O)[O-])Oc1ccccc1	-11	1	.	.	.	-3	.	i
CC(=O)Nc1ccc(Nc2nnc(-c3ccc(C)c(S(N)(=O)=O)c3)c3ccccc23)cc1	-4	2	-17	3	3	-10	7	i
Cc1cc(C(=O)OCC(=O)c2ccc3c(c2)NC(=O)CO3)c2ccccc2n1	-5	4	.	1	1	-2	-5	i
CC(OC(=O)c1cccnc1)C(=O)Nc1ccc2c(c1)OCO2 (stereo not given)	-5	-6	.	3	4	-9	8	i
Cc1c(C(=O)NC(C)C)sc2ncn(CC(=O)N3CCC(C)CC3)c(=O)c12	9	2	6	8	1	-4	-1	i
O=C(Nc1cccc(F)c1)/C(=C\c1ccco1)NC(=O)c1ccco1	-8	9	-8	-9	1	-10	-1	i
CS(=O)(=O)N(Cc1ccccc1)c1ccc(C(=O)Nc2ccccc2Sc2ccccc2)cc1	4	-5	.	4	8	-3	.	i
CCCn1ncc(CN2CCN(Cc3ccc(C)o3)C(CCO)C2)c1C (stereo not given)	2	2	-4	-3	3	5	-5	i
CC(=O)C1(O)C(C)CC2C3CCC4CC(O)CCC4(C)C3=CCC21C (stereo not given)	-1	-6	-18	0	-8	.	.	.
CC(C)CN(CC(C)C)C(=O)C12CCC(C)(C(=O)O1)C2(C)C (stereo not given)	4	5	.	1	4	-1	40	i
COc1ccc(OCc2cc(C(=O)NC(C)Cc3ccccn3)no2)c(Cl)c1 (stereo not given)	-3	7	7	0	0	5	15	i
Cn1nnnc1SCC(=O)N1N=C(c2cccs2)CC1c1cccs1 (stereo not given)	.	.	-16	2	-2	-5	-21	.
c1cncc(-c2noc(CC3CCCCC3)n2)c1	-5	-2	-10	7	3	-3	-4	i
CS(=O)(=O)c1ccccc1C(=O)N(CCc1ccccc1)Cc1ccccc1	13	-4	-17	-1	0	11	.	i
O=C(CN1C(=O)NC2(CCc3ccccc32)C1=O)NCC(=O)Nc1ccc(F)cc1 (stereo not given)	.	.	-1	-4	-1	-22	7	.
CCc1nc2c(OCc3c(C)noc3C)cccn2c1N(C=O)Cc1ccccc1	.	.	-21	0	3	.	18	.
COc1cccc(N2C(=O)CC(N3CCc4ccccc4C3)C2=O)c1 (stereo not given)	0	3	.	-1	-2	-4	-30	i
CC(C)NC(=O)Nc1n[nH]c(Nc2ccc(Cl)cc2)n1	0	-13	-9	-5	-1	11	-70	i
Cc1cc(NC(=O)Cc2ccsc2)ccc1Br	-4	1	-17	0	-9	-5	-1	i
Cc1ccc(C(=O)Nc2nc(-c3ccccn3)cs2)s1	.	.	-71	-1	-10	43	39	.
Cc1ccc(C)c(OCc2cc(C(=O)NC(c3ccccn3)C(F)(F)F)no2)c1 (stereo not given)	7	2	-21	-2	-9	20	5	i
CCOCC(=O)Nc1cc(S(=O)(=O)N2CCOCC2)ccc1N1CCCCC1	-11	6	.	-8	-2	2	-1	i
COc1ccc(OS(=O)(=O)c2ccc(N3C(=O)CCC3=O)cc2)cc1	-1	-3	-19	-1	0	.	-3	i
O=[N+]([O-])c1ccc(N2CCCCC2)cc1NCCOc1ccccc1	-6	0	.	-1	-6	20	19	i
CCCCc1nnc(NC(=O)c2ccccc2OCc2c(C)noc2C)s1	.	.	-17	5	5	-12	-9	i
CCC(C(=O)NC1CCCCCC1)n1nc(C)c2c(C)n(-c3ccccc3)nc2c1=O (stereo not given)	-8	-3	-16	0	-8	-4	4	i
CCCc1nc2oc3c(NCC(C)O)ncnc3c2c2c1CCCC2 (stereo not given)	-1	-2	-14	3	-6	2	5	i
CC(/C=C1\SC(=S)N(CCC(=O)Nc2ccc(O)cc2)C1=O)=C\c1ccccc1	0	-7	-11	-5	-3	40	7	i
CCn1c(=O)cc(OCC(=O)NCc2ccc(C)o2)c2ccccc21	-2	5	-9	7	6	.	-52	i
O=C(Nc1cccc(-c2cn3ccccc3n2)c1)C1CC1	3	6	-9	9	6	-8	-60	+

Compound activity as filed in PubChem.
